Assay outcomes as filed in PubChem BioAssay.
KCNQ2 inh = KCNQ2 potassium channel inhibitors, primary screen, cell-based, CHO-K1, FluxOR thallium flux, B-score (AID 2156); O88943; 20 min; active compounds read low; only compounds with negative scores are shown here; some inactives read as strong as hits; B-score at 10 µM; hit rate 1.1% among 310,000;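 active means fluorescence ratio B-score at most minus 3 library SDs, with starting brightness B-score within 2 library SDs, cut at about -5.5 in these data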
Target sequence (O88943 whole entry, looked up): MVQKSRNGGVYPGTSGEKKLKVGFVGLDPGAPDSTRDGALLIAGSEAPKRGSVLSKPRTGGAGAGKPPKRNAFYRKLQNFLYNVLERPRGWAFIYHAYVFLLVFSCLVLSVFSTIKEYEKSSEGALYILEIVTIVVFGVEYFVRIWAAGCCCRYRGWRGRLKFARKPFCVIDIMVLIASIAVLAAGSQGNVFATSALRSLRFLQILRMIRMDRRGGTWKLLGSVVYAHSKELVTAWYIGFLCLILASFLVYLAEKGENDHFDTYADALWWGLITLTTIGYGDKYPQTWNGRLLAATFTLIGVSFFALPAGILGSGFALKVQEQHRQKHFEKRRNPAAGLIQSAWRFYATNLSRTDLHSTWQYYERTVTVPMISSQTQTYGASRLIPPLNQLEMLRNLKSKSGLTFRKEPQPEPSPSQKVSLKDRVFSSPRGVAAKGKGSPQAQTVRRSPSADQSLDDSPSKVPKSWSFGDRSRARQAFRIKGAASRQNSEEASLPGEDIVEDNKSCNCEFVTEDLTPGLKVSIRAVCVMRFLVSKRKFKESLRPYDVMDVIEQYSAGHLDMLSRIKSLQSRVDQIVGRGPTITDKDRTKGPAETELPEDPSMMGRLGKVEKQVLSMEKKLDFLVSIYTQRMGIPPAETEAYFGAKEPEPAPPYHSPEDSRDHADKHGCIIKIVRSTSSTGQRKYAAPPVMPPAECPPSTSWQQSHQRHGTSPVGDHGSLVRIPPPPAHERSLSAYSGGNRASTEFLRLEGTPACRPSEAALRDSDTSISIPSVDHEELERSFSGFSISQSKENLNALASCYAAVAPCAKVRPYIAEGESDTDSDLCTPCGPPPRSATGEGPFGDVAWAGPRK
KCNQ2 inh baseline = also measured in KCNQ2 inh; calls as there; B-score; measured here: initial fluorescence intensity artifact check;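 brightness before thallium and not channel activity; 0 = typical well and far values either way flag optical interference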
Active calls of the source: *; i = inactive. Only part of the results is shown (hit frequency here may not be typical).

SMILES	KCNQ2 inh	KCNQ2 inh baseline
CC(NC(=O)c1cccnc1Sc1ccccc1)c1ccc(S(N)(=O)=O)cc1 (stereo not drawn)	i	1
C#CCNC(=O)C1=C[C@@H](c2csc3ccccc23)[C@H](CCCO)[C@@H](OCC)O1	i	2.51
COc1cc(-c2nnc(SCc3ccccc3Cl)o2)cc(OC)c1OC	-6.83*	-1.94*
COc1ccc(NC(=O)C(=O)NCCC2CCCCN2S(=O)(=O)c2ccccc2)cc1 (stereo not drawn)	i	0.02
Cc1c(NC2=C(Cl)C(=O)N(c3ccccc3Cl)C2=O)c(=O)n(-c2ccccc2)n1C	i	-0.83
COc1cc(OC)c2ccc(=O)oc2c1C(CC(=O)N1CCCC(C)C1)c1ccc2c(c1)OCO2 (stereo not drawn)	i	1.36
Cc1cc(/C=C2/C(=N)N3C(c4ccccc4)=CSC3=NC2=O)c(C)n1-c1ccccc1	i	-0.17
Cc1ccc(NC(=O)C2CCCN2C(=O)NC2CCCCC2)cc1 (stereo not drawn)	i	-0.31
COc1ccc(-c2nc3ccccc3nc2-c2ccc(OC)cc2)cc1	i	0.03
CCOC(=O)CSCc1nc(-c2ccc(Cl)cc2)oc1C	i	1.57
N=C(N)SCc1nc2ccccn2c1Br	i	1.68
O=C(COc1ccc2c(c1)oc(=O)c1ccccc12)N[C@@H](Cc1ccccc1)C(=O)O	i	0.08
COc1ccc(N2C(=S)NC3N2C(=S)NC3(C)c2ccccc2)cc1 (stereo not drawn)	i	-0.35
Cc1cc(N=Nc2ccccc2C(=O)O)c(C)c(C)c1O	i	-1.5
COc1ccccc1NC(=O)/C(=C/c1cccs1)NC(=O)c1ccco1	i	1.86
O=C(O)c1cn(Cc2ccccc2)nc1-c1cccnc1	i	-0.64
O=C(CN1C(=O)CSc2ccc(S(=O)(=O)N3CCOCC3)cc21)NCCCN1CCc2ccccc2C1	i	0.33
O=C(CCCc1c[nH]c2ccccc12)Nc1ccc(S(=O)(=O)Nc2ncccn2)cc1	i	-0.97
COCc1ccc(C(=O)N2CCCC(Nc3ccc(F)c(F)c3)C2)s1 (stereo not drawn)	i	1.01
COC(=O)C1CCN(C(=O)COC(=O)c2ccc(=O)n(Cc3ccccc3)n2)CC1	i	1.48
O=c1ccc(NS(=O)(=O)c2ccccc2)cn1Cc1ccc(Cl)c(Cl)c1	i	-1.49
S=C(Nc1ccccc1)N(CCN1CCOCC1)Cc1cccc(Cl)c1	i	-0.72
COC(=O)C1=NN[C@H](C(=O)OC)[C@H]1c1ccccc1	i	0.11
S=c1[nH]nc(COc2ccc(Cl)cc2)n1-c1ccc(Cl)cc1	i	0.26
O=C(c1ccc(C(F)(F)F)cc1)N1CCN(c2ccc(N3CCOCC3)nn2)CC1	i	-0.3
O=C(C1CCC(Cn2c(=S)[nH]c3ccccc3c2=O)CC1)N1CCN(c2ccccn2)CC1 (stereo not drawn)	i	1.35
COc1ccc(C)cc1NC(=O)Nc1ccc2c(c1)CCC2	i	0.27
CN(C)S(=O)(=O)c1ccc(NC(=O)COC(=O)CC2CC3CCC2C3)cc1 (stereo not drawn)	i	0.09
O=S(=O)(c1cccc2nsnc12)N1CCc2ccccc21	i	2.17
Clc1ccc(CSc2cc3c(nn2)-c2ccccc2CC3)cc1	-10.4*	0.98*
CC(C)OCCCNC(=O)Cn1ncc2c(=O)oc3ccccc3c21	i	1.09
CC1CCN(C(c2ccc(N(C)C)cc2)c2nnnn2Cc2ccc(F)cc2)CC1 (stereo not drawn)	i	0.02
COC(=O)c1ccc(C(=O)OC)c(NC2=NS(=O)(=O)c3ccccc32)c1	i	4.1
O=C1C(NS(=O)(=O)c2cccs2)=C(N2CCN(Cc3ccccc3)CC2)C(=O)c2ccccc21	i	2.2
CCOC(=O)C(=Nc1ccccc1)NO	i	0.04
COc1ccc(-c2nnc3cccc(Cl)n23)c(OC)c1	i	1.06
Fc1ccccc1NC(=S)NCCc1ccc(Cl)cc1	i	-1.32
Cc1ccc(C(=O)OCN2C(=O)c3ccccc3C2=O)c(O)c1	i	1.1
O=C(CCCOc1ccccc1)Nc1ccc(S(=O)(=O)Nc2ccccn2)cc1	i	-0.31
O=[N+]([O-])c1ccc(Cl)cc1CN1CCCCCC1	i	-0.27
COc1ccc(S(=O)(=O)NNC(=O)Nc2ccccc2OC)c(OC)c1	i	-0.34
C[C@H](O)CC1=C[C@H](O)[C@@H](C)OC1=O	i	-0.6
OC1CN=C2CCCc3c2n(c2ccc(Cl)cc32)C1 (stereo not drawn)	i	-1.4
CC(C)(C)OC(=O)NCCCCCc1nnc(SCc2ccccc2)o1	i	-1.03
Cc1ccc(CNCC2CCCO2)o1 (stereo not drawn)	i	-1.34
CN(Cc1ccccc1)C(=O)NC1CCCCC1	i	0.87
CC(C)(C)c1ccc(CCC(CC(=O)O)CC(=O)O)cc1	i	0.25
COc1nn(CC(=O)N2N=C(C(F)F)CC2(O)C(F)F)cc1[N+](=O)[O-] (stereo not drawn)	i	1.65

Three of the compounds above, with the structure last:
KCNQ2 inh | KCNQ2 inh baseline | canonical_smiles
i | -0.31 | Cc1ccc(NC(=O)C2CCCN2C(=O)NC2CCCCC2)cc1 (stereo not drawn)
i | 0.09 | CN(C)S(=O)(=O)c1ccc(NC(=O)COC(=O)CC2CC3CCC2C3)cc1 (stereo not drawn)
i | -0.31 | O=C(CCCOc1ccccc1)Nc1ccc(S(=O)(=O)Nc2ccccn2)cc1

Other results follow:
SMILES	KCNQ2 inh	KCNQ2 inh baseline
O=C(c1sc2ccccc2c1Cl)N(Cc1cccs1)C1CCS(=O)(=O)C1 (stereo not drawn)	i	0.13
CCCN1CCC(=O)N([C@H](CSc2ccccc2)CC(C)C)CC1	i	0.09
COc1ccccc1N1CCN(C2CCN(S(=O)(=O)c3ccc4ccccc4c3)CC2)CC1	i	-0.02
Cc1ccc(S(=O)(=O)NCc2cn3ccccc3n2)c(C)c1	i	-1.26
COc1ccc(C(C#N)c2cnccn2)cc1OC (stereo not drawn)	i	0.49
C=CCn1c(SCC(=O)NCCc2ccccc2)nnc1C(C)NC(=O)c1cccs1 (stereo not drawn)	i	-1.7
O=C(Nc1ccccc1F)c1cccc(C(=O)Nc2ccccc2F)c1	i	-0.58
FC(F)(F)c1cc(-c2ccccc2)nc(NC2CCCC2)n1	i	1
COC(=O)Nc1ccc(S(=O)(=O)Nc2ncccn2)cc1	i	0.16
COC(=O)/C=C1\S/C(=N/NC(=O)c2ccc(OC)cc2)NC1=O	i	0.25
CC(C)OC(=O)CC12CN3CN(C1)CC(CC(=O)OC(C)C)(C3)C2=O	i	0.97
O=C(c1ccc(F)cc1)N1CCCCC(S(=O)(=O)c2ccccc2)C1=O (stereo not drawn)	i	-0.82
Cc1ccc(S(=O)(=O)N2CCN(C(=O)C3CC3C)CC2)c(C)c1 (stereo not drawn)	i	-0.86
O=C(CN1C(=O)COc2ccccc21)N(Cc1ccccc1)Cc1ccccn1	-6.06*	-0.63*
Cc1ccc2[nH]cc(C(=O)NCc3cccs3)c(=O)c2c1	i	-1.47
O=C(COc1ccc(C(=S)N2CCCC2)cc1)Nc1ccc(F)cc1	i	-0.5
O=C1CCC(C(=O)NC2(C(=O)NC3CCCCC3)CCCCC2)N1 (stereo not drawn)	i	-0.25
O=C(Nc1ccc(N2CCOCC2)nc1)c1cccs1	i	-0.93
COc1ccc(NC(=O)CNC(=O)Cn2cnc3sc4c(c3c2=O)CCCC4)cc1OC	i	-1.09
Cc1ccc(NC(=O)C2CCCN(S(=O)(=O)c3c(C)noc3C)C2)c(C)c1 (stereo not drawn)	i	0.12
Cc1ccc(N2CC(C(=O)OCC(=O)Nc3cc(C)on3)CC2=O)c(C)c1 (stereo not drawn)	i	-0.15
COc1ccc(C2CC(=O)c3cnc(Nc4cc(C)cc(C)c4)nc3C2)cc1 (stereo not drawn)	-5.92*	-0.03*
COCCNC(=O)C1CCC(CNS(=O)(=O)c2cccc3nsnc23)CC1 (stereo not drawn)	i	-0.53
COC(=O)C1=CN(c2cccc(C(F)(F)F)c2)C=C(C(=O)OC)C1c1ccc(O)c(OC)c1	i	-0.12
CCc1ccc(NC(=O)CN2CCCN(S(=O)(=O)c3ccc(F)cc3)CC2)cc1	i	-1.2
CCC(Oc1ccccc1)C(=O)NCc1ccc(S(N)(=O)=O)cc1 (stereo not drawn)	i	0.85
O=C(CSc1nnc2ccc(-c3ccco3)nn12)Nc1ccccc1F	i	0.18
CCN1C(=O)[C@H]2[C@@H](c3ccc(-c4ccc(F)cc4)cc3)N3CCCC[C@@]3(C(=O)OC)[C@H]2C1=O	i	0.26
COc1ccc([N+](=O)[O-])cc1NS(=O)(=O)c1ccccc1	i	0.48
COc1ccc(Cc2nc3ccc(C(=O)NCc4cc(C)no4)cc3o2)cc1OC	i	-0.93
FC(F)(F)c1cccc(-c2cc3ccccc3nc2N2CCCC2)c1	-6.95*	0.24*
O=C(NCCc1ccc(F)cc1)C(=O)Nc1cc2c3c(c1)CC(=O)N3CCC2	i	-0.78
COc1ccccc1CNS(=O)(=O)c1ccc2c(c1)CC(C)N2C(=O)C1CC1 (stereo not drawn)	i	0.35
COCCCn1cc(C(=O)c2cc(OC)ccc2OCC(=O)Nc2cc(C)on2)cc(C#N)c1=O	i	0.3
COCC(=O)Nc1nc(-c2ccc([N+](=O)[O-])cc2)cs1	i	-0.18
Nc1c(C(=O)NCc2ccco2)c2nc3ccccc3nc2n1CCc1ccc(F)cc1	i	-2.52

Looked up by structure from the entries so far (2):
SMILES	KCNQ2 inh	KCNQ2 inh baseline
COc1ccccc1CNS(=O)(=O)c1ccc2c(c1)CC(C)N2C(=O)C1CC1 (stereo not drawn)	i	0.35
COCC(=O)Nc1nc(-c2ccc([N+](=O)[O-])cc2)cs1	i	-0.18

(list continues)
SMILES	KCNQ2 inh	KCNQ2 inh baseline
NS(=O)(=O)c1ccc(NC(=O)CN2CCc3ccccc3C2)cc1	i	-1.75
O=C1CC2(CCCC2)CC(=O)N1CCCCN1CCN(c2ncccn2)CC1	i	-0.12
Cc1ccc(OC(=O)Cn2c(C(F)(F)F)nc3ccccc32)cc1	i	-0.18
CCOC(=O)C1CCN(c2c([N+](=O)[O-])c(C(Cl)Cl)nn2-c2ccccc2)CC1	i	-3.04
CCOc1ccccc1NC(=S)N1CCC(NC(=O)C(C)(C)C)CC1	i	-1.34
COc1ccc(Br)cc1CNC(=O)Cc1cccs1	i	0.06
O=[N+]([O-])c1ccc(/C=[N+](\[O-])[C@@H]2CCCC[C@@H]2/[N+]([O-])=C/c2ccc([N+](=O)[O-])o2)o1	i	1.77
Cc1ccc(CCNC(=O)c2cc(S(=O)(=O)N3CCCCC3)c[nH]2)cc1	i	1.19
CCC(CO)n1c(=S)[nH]c2cc(OC)c(OC)cc2c1=O (stereo not drawn)	i	-0.36
Cc1snc(SCC(=O)N/N=C(\N)COc2cccc(C(F)(F)F)c2)c1C#N	i	1.74
Cn1c(Cc2ccc3c(c2)OCO3)nnc1SCC(=O)NC1CCCC1	i	-1.42
COc1cc(C(C)=O)ccc1OCCCN1CCC(Cc2ccccc2)CC1	i	-1.71

5 compounds from above, sorted by their value in KCNQ2 inh, largest number first:
Compound	KCNQ2 inh
COc1ccc(C2CC(=O)c3cnc(Nc4cc(C)cc(C)c4)nc3C2)cc1 (stereo not drawn)	-5.92*
O=C(CN1C(=O)COc2ccccc21)N(Cc1ccccc1)Cc1ccccn1	-6.06*
COc1cc(-c2nnc(SCc3ccccc3Cl)o2)cc(OC)c1OC	-6.83*
FC(F)(F)c1cccc(-c2cc3ccccc3nc2N2CCCC2)c1	-6.95*
Clc1ccc(CSc2cc3c(nn2)-c2ccccc2CC3)cc1	-10.4*

Continuation:
SMILES	KCNQ2 inh	KCNQ2 inh baseline
COC(=O)c1c(C)nc2ccccc2c1-c1ccccc1	i	0.27
Cc1nn(Cc2ccc([N+](=O)[O-])cc2)c(=O)n1N(C)c1ncc(C(F)(F)F)cc1Cl	i	-0.91
CCN(CC)C(=S)Sc1c(-c2ccccc2)c2cc(Cl)ccc2[nH]c1=O	i	0.73
O=C(COC(=O)c1cccs1)Nc1nc(-c2ccccc2)cs1	i	1.06
CCN(CC)CC#CC(OC)(c1ccccc1)c1ccccc1	i	1.65
CC1Cc2cc(S(=O)(=O)N3CCCCC3C)ccc2N1C(=O)C1CCC1 (stereo not drawn)	i	0.5
Cc1ccc(CNC(=O)CCc2nnc3ccc(N4CCC5(CC4)OCCO5)nn23)cc1	i	-1.27
Cc1c(N/N=C(\C#N)C(=O)c2ccccc2)c(=O)n(-c2ccccc2)n1C	i	0.15
OCc1c(Cl)nc2ccccn12	i	1.98
COc1ccc(C2CC(c3ccccc3)=NN2C(=O)COC(=O)c2ccc(S(C)(=O)=O)cc2)cc1 (stereo not drawn)	i	-1.88
O=C1CC(c2ccc(Cl)cc2)CC(O)=C1C=NCCN1CCNCC1 (stereo not drawn)	i	-0.04
COCCN(C(=O)Cc1cccs1)C(C(=O)NC1CCCC1)c1ccc(OC)c(OC)c1 (stereo not drawn)	i	-0.95
CCOC(=O)C(NC(C)=O)C(=O)Nc1ccc(OC)cc1 (stereo not drawn)	i	1.61
CCOc1ccc(NS(=O)(=O)c2ccc(-c3cnc(C4CC4)o3)cc2)cc1	i	0.72
COc1ccc(OCCNc2cc(N3CCCCC3)ccc2[N+](=O)[O-])cc1	i	-2.23
Cc1ccsc1/C=N/NC(=O)c1ccc(-n2cccc2)cc1	i	-1.42
Cc1ccc(-c2nn(-c3ccccc3)cc2/C=C(\C#N)C(=O)NCc2ccccc2)cc1	i	0.1
